RGS16-Gao HTS: modulates binding between human RGS16 and Galphao | bead-based flow cytometry RGS16-Galphao binding, fluorescence; actives lie on both sides | O15492+P09471 | hit rate 0.38% among 220,000 | binding response (% of control), % at 10 µM;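 active = below 25% or above 175%, edge rows of some plates excepted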;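 note: Galphao activated by GDP with aluminum fluoride before binding; 100% = wells without compound and 0% = beads without RGS; some results beyond the cut were filed as inactive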
Target sequence (O15492 whole entry, looked up): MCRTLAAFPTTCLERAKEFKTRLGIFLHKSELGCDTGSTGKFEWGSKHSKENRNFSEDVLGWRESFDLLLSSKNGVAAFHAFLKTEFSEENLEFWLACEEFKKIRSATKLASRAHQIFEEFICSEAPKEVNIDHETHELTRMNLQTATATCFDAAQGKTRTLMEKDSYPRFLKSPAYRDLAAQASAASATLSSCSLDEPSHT
Target sequence (P09471 whole entry, looked up): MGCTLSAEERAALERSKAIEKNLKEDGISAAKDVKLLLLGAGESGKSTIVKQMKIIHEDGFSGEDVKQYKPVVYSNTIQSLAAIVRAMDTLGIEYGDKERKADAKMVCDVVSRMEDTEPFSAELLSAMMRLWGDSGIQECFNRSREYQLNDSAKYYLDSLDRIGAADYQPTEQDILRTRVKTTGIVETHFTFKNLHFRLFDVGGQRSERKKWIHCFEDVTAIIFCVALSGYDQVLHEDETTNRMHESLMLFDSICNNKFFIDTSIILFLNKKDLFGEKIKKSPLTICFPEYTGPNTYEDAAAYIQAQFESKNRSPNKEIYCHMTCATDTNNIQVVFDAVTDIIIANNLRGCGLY
PKD1 inh: blocks activity of human protein kinase D1. Q15139. PKD1 kinase fluorescence polarization assay. inhibition, %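 (about 10 µM by stock and volumes)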. hit rate 0.056% among 200,000. AID 797;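 active = inhibition of 50% or more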;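 note: controls were vehicle for no effect and a reference inhibitor for full effect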
GALR2 ag: agonists of human galanin receptor 2 (GALR2) | O43603 | activation, %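 (tested at 5 µM)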 | GALR2-expressing cells, agonist activation read-out | hit rate 0.48% among 140,000;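 active = above mean plus 3 SD of all compounds, about 5% in these data, not always enough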;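 note: 0% = vehicle buffer wells and 100% = reference agonist at full effect; tested in CHO reporter cells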
Target sequence (O43603 whole entry, looked up): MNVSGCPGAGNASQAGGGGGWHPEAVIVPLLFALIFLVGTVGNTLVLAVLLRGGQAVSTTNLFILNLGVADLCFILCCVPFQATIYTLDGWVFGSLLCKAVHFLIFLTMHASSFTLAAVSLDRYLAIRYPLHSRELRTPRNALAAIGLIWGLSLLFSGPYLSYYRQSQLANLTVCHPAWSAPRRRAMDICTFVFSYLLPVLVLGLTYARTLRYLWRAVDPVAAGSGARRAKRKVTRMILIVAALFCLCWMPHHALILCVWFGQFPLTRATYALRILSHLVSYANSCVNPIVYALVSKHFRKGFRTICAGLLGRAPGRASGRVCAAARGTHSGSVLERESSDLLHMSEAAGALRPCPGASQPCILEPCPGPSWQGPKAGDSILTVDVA
HSV augment: increases HSV replication in cells; HSV replication augmentation in cells, fold increase; maximum fold increase; hit rate 0.005% among 220,000;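 active = peak rise of 1.5-fold or more in the series; tested in PC3 cells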;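 note: first round at 10 µM; read as green reporter fluorescence; hits show the peak of a series up to 25 µM; 1 = signal of infected wells without compound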
INS promoter inh: TRM-6 insulin promoter activity inhibition | TRM-6 cells (human fetal islet line), insulin promoter-eGFP reporter, imaging; reporter expression induced with tamoxifen | inhibition, % at 2 µM | hit rate 0.9% among 130,000;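 active = inhibition above the mean plus 3 SD, with well images judged a real hit on visual review, cut at about 60% in these data, passing the limit was not always enough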
INS promoter inh cell count: second read-out of INS promoter inh, no call of its own (marks repeat the call); normalized cell count, %; measured here: cell count, toxicity; reference of the scale not given here;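 cells exposed to compound for 48 h; stained nuclei by imaging scaled within each plate; lower means fewer cells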
HSV augment primary fold: recorded beside HSV augment, whose call it bears; fold increase; compound at 10 µM; measured here: primary screen fold increase 10 uM; tested in PC3 cells;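 GFP signal in the first replicate; 1 = infected wells without compound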
Starred values were filed as active, the others as inactive; i = inactive; / = no result given.

SMILES | RGS16-Gao HTS | PKD1 inh | GALR2 ag | HSV augment | HSV augment primary fold | INS promoter inh | INS promoter inh cell count
COc1cccc(-c2nnc3sc(-c4ccc(C)cc4)nn23)c1 | 97.8 | -13.3 | -3.8 | / | / | -33.3 | 90.2
COc1ccc2[nH]c3c(N4CCC(O)(c5cccc(C(F)(F)F)c5)CC4)ncnc3c2c1 | 88.8 | -1.9 | 1.7 | i | 0.947 | 58.1 | 178.9
CN1CCN(Cc2nc3ccccc3c(=O)n2Cc2nc(-c3ccccc3F)cs2)CC1 | 100.1 | -3.4 | 0.3 | i | 0.76 | / | /
CCCCC(=O)NC(=S)Nc1cccc(C(=O)O)c1 | 105.3 | 5.6 | / | i | 1.11 | 5.9 | 126.1
CCOC(=O)C1CCCN(C(=O)C2CCN(S(=O)(=O)c3cnc[nH]3)CC2)C1 (centres undefined) | 100.0 | -4.7 | -0.1 | i | 0.9 | / | /
CCCCCC(=O)N/N=C/c1ccc(N(C)C)cc1 | 78.5 | -4.9 | -0.3 | i | 0.96 | 3.3 | 65.2
O=C(O)CC/C(=C\c1ccc(Cl)c([N+](=O)[O-])c1)c1nc2ccccc2s1 | 101.5 | -8.8 | -1.4 | i | 0.97 | / | /
CCOC(=O)c1c(CSC(=N)N)n(C)c2cc(Br)c(OC(C)=O)cc12 | 92.5 | / | / | i | 0.8 | / | /
S=C1NCCOCCOCCOCCOCCN1 | 104.8 | -1.6 | -3.2 | i | 0.85 | -7.1 | 95.6
CCC(=O)Nc1cccc(C2=NOC3(C2)C[C@H](C(N)=O)N(C(=O)Cc2ccc([N+](=O)[O-])cc2)C3)c1 (some centres undefined) | 114.6 | / | / | i | 0.9 | / | /
CCOC(=O)c1c(NC(=S)Nc2ccc(OC)cc2)sc2c1CCCCC2 | 101.0 | 5.4 | -1.1 | i | 0.99 | 37.5 | 129.9
CCC(C)NC(=O)CSc1nc2cc3c(cc2c(=O)n1Cc1ccco1)OCO3 (centres undefined) | 153.1 | 3.1 | / | i | 0.92 | 50.0 | 48.5
COc1cc(C(=O)NC2CC(C)(C)NC(C)(C)C2)cc(OC)c1OC | 90.6 | 7.0 | / | i | 0.92 | / | /
O=C(NN1C(=O)/C(=C\c2cccnc2)SC1=S)c1ccco1 | 112.0 | -6.2 | / | i | 0.89 | 50.0 | 82.8
COc1cc(C)c(Cl)cc1S(=O)(=O)n1ccnc1C | 99.9 | -0.5 | -2.6 | i | 0.87 | -28.1 | 62.1
Cc1ccc(OCCCOc2cccc3cccnc23)cc1C | 87.8 | -1.3 | -2.4 | i | 0.92 | 57.7 | 116.1
Cc1nnc(-c2cnn(C)c2N)n1CCCN(C)C | 99.5 | -2.8 | / | i | 1.03 | / | /
O=C(/C(=C(\[O-])c1ccccc1)[n+]1ccc2ccccc2c1)c1ccc([N+](=O)[O-])cc1 | 66.9 | -4.5 | -1.4 | i | 1.09 | 13.3 | 79.0
CCOC(=O)c1c(C)[nH]c(C2=NNC(=Nc3ccc(OCC)cc3)SC2)c1C | 96.5 | -5.7 | 0.3 | i | 0.81 | 27.3 | 77.6
Cc1cccc(N2CCN(CC(O)COCc3cccs3)CC2)c1C (centres undefined) | 91.5 | -13.5 | -0.3 | i | 1.1 | / | /
Cc1ccccc1Nc1cc(=O)oc2ccccc12 | 108.1 | -3.6 | -0.9 | i | 1.05 | -2.7 | 61.0
CCN(CC)CCCN=C(C)C1=C(O)c2ccccc2C1=O | 91.5 | / | / | i | 1.1 | / | /
O=C(c1ccccc1)N1CCN(c2n[nH]c(=O)[nH]c2=O)CC1 | 99.3 | -4.9 | / | i | 0.92 | / | /
Cc1ccc(N2C(=O)c3cccc4c(C(=O)O)ccc(c34)C2=O)cc1 | 51.5 | 5.6 | / | i | 0.97 | -28.6 | 61.9

Another view of some results above.
Molecule	RGS16-Gao HTS	PKD1 inh	GALR2 ag	HSV augment	HSV augment primary fold	INS promoter inh	INS promoter inh cell count
CCOC(=O)c1c(CSC(=N)N)n(C)c2cc(Br)c(OC(C)=O)cc12	92.5	/	/	i	0.8	/	/
S=C1NCCOCCOCCOCCOCCN1	104.8	-1.6	-3.2	i	0.85	-7.1	95.6

At a glance, some entries already given.
SMILES | RGS16-Gao HTS | PKD1 inh | GALR2 ag | HSV augment | HSV augment primary fold | INS promoter inh | INS promoter inh cell count
CCC(=O)Nc1cccc(C2=NOC3(C2)C[C@H](C(N)=O)N(C(=O)Cc2ccc([N+](=O)[O-])cc2)C3)c1 (some centres undefined) | 114.6 | / | / | i | 0.9 | / | /
CCOC(=O)c1c(NC(=S)Nc2ccc(OC)cc2)sc2c1CCCCC2 | 101.0 | 5.4 | -1.1 | i | 0.99 | 37.5 | 129.9
CCC(C)NC(=O)CSc1nc2cc3c(cc2c(=O)n1Cc1ccco1)OCO3 (centres undefined) | 153.1 | 3.1 | / | i | 0.92 | 50.0 | 48.5
COc1cc(C(=O)NC2CC(C)(C)NC(C)(C)C2)cc(OC)c1OC | 90.6 | 7.0 | / | i | 0.92 | / | /
O=C(NN1C(=O)/C(=C\c2cccnc2)SC1=S)c1ccco1 | 112.0 | -6.2 | / | i | 0.89 | 50.0 | 82.8
COc1cc(C)c(Cl)cc1S(=O)(=O)n1ccnc1C | 99.9 | -0.5 | -2.6 | i | 0.87 | -28.1 | 62.1
Cc1ccc(OCCCOc2cccc3cccnc23)cc1C | 87.8 | -1.3 | -2.4 | i | 0.92 | 57.7 | 116.1
Cc1nnc(-c2cnn(C)c2N)n1CCCN(C)C | 99.5 | -2.8 | / | i | 1.03 | / | /
O=C(/C(=C(\[O-])c1ccccc1)[n+]1ccc2ccccc2c1)c1ccc([N+](=O)[O-])cc1 | 66.9 | -4.5 | -1.4 | i | 1.09 | 13.3 | 79.0
CCOC(=O)c1c(C)[nH]c(C2=NNC(=Nc3ccc(OCC)cc3)SC2)c1C | 96.5 | -5.7 | 0.3 | i | 0.81 | 27.3 | 77.6
Cc1cccc(N2CCN(CC(O)COCc3cccs3)CC2)c1C (centres undefined) | 91.5 | -13.5 | -0.3 | i | 1.1 | / | /
Cc1ccccc1Nc1cc(=O)oc2ccccc12 | 108.1 | -3.6 | -0.9 | i | 1.05 | -2.7 | 61.0
CCN(CC)CCCN=C(C)C1=C(O)c2ccccc2C1=O | 91.5 | / | / | i | 1.1 | / | /
O=C(c1ccccc1)N1CCN(c2n[nH]c(=O)[nH]c2=O)CC1 | 99.3 | -4.9 | / | i | 0.92 | / | /
Cc1ccc(N2C(=O)c3cccc4c(C(=O)O)ccc(c34)C2=O)cc1 | 51.5 | 5.6 | / | i | 0.97 | -28.6 | 61.9

The results go on.
SMILES | RGS16-Gao HTS | PKD1 inh | GALR2 ag | HSV augment | HSV augment primary fold | INS promoter inh | INS promoter inh cell count
COC(=O)Cn1c(C)nc(=O)c(-c2ccccc2)c1C | 122.5 | -0.8 | -0.9 | i | 0.97 | 15.8 | 92.7
c1ccc(-c2ccccc2OCCCN2CCCCCC2)cc1 | 97.5 | -3.3 | / | i | 0.71 | / | /
Cc1cc(C)c(C(=O)Nc2ccc(S(=O)(=O)Nc3onc(C)c3C)cc2)c(C)c1 | 109.0 | -0.7 | -3.0 | i | 1.01 | / | /
COc1ccc2nc(C)c3c(c2c1)OC(C)C3 (centres undefined) | 102.9 | 6.0 | -3.4 | i | 0.99 | 6.5 | 108.5
CCSc1nnc(CNC(=O)c2ccccc2F)n1-c1ccccc1OC | 100.4 | -1.6 | / | i | 0.9 | / | /
Cc1ccc(-c2cc(-c3ccccc3C)[nH]n2)c(O)c1 | 110.1 | 7.7 | -0.7 | i | 0.93 | -70.0 | 127.4
COc1cccc(-c2nnc(NC(=O)c3ccc(Cl)s3)o2)c1 | 65.6 | -13.5 | -1.6 | / | / | -148.8 | 39.3
COc1ccc(N(CC(=O)Nc2ccc3c(c2)OCO3)S(=O)(=O)c2ccccc2)cc1 | 101.2 | 6.6 | / | i | 1.06 | / | /
COc1ccc(-c2csc(-c3ccc(O)cc3)n2)cc1 | 102.3 | / | / | i | 0.66 | / | /
CCCOC(=O)Nc1ccc(S(=O)(=O)Nn2cnnc2)cc1 | 99.7 | -4.2 | -2.8 | i | 0.97 | / | /
COc1ccc(NC(=O)c2cc(S(=O)(=O)Nc3ccc(OC)cc3)cs2)cc1 | 97.2 | / | / | i | 0.86 | / | /
C=CCn1c(SCC(=O)NCCC2=CCCCC2)nc2ccc(Cl)cc2c1=O | 103.3 | -23.1 | -1.7 | i | 0.89 | 3.2 | 92.8
CCOc1ccc(C2C(C(=O)OC)=C(C)N=C3SCCC(=O)N32)cc1OCC (centres undefined) | 105.2 | -14.3 | -1.5 | i | 0.94 | 14.3 | 60.7
CC1Cc2cc(/C(O)=C3/C(=O)C(=O)N(CCN4CCOCC4)C3c3ccc(C(C)C)cc3)ccc2O1 (centres undefined) | 108.3 | / | / | i | 0.92 | / | /
COC(=O)C1=C(CSc2nncn2C)NC(=O)NC1c1ccc(F)cc1 (centres undefined) | 104.3 | 4.1 | -4.1 | i | 1.16 | -73.5 | 123.4
COc1ccc(-c2c(C)n([O-])c3c([n+]2=O)CCCC3)c(OC)c1 | 104.5 | 2.1 | -0.2 | / | / | -38.5 | 87.4
Cc1cc(SCC(=O)Nc2ncc(Cl)cc2Cl)nc2ccccc12 | 95.9 | -10.4 | -1.5 | i | 0.97 | / | /
COCCn1c(N)c(C(=S)NC(=O)c2cccs2)c(=O)[nH]c1=O | 96.3 | / | / | i | 1.02 | / | /
CN(C)c1ccc(NC(=O)N2CCOCC2)cc1 | 87.4 | -5.3 | -1.2 | i | 0.95 | -219.1 | 86.5
COc1ccc(N2CCN(C(=O)c3ccc(Cn4c(=S)[nH]c5ccc(N6CCOCC6)cc5c4=O)cc3)CC2)cc1 | 88.1 | 0.6 | / | i | 0.95 | / | /
Cn1c(SCC2CCCO2)nnc1-c1ccc([N+](=O)[O-])cc1 (centres undefined) | 105.9 | 0.3 | / | i | 1.01 | 0.0 | 104.1
Cc1cc2ccccc2n1CCNC(=O)Cc1cccc2ccccc12 | 102.4 | 6.8 | -2.6 | i | 1.13 | / | /
CCCCn1c(=O)[nH]c(=O)c2c1nc(-c1ccc(OCCC)c(OCC)c1)n2C | 100.5 | / | / | i | 0.82 | / | /
N#CCCn1c(SCC(=O)N2CCN(S(=O)(=O)c3ccccc3)CC2)nc2ccccc21 | 104.5 | 13.6 | -2.2 | i | 1.07 | -7.1 | 68.8
Cc1oc(-c2cccs2)nc1CN1CCN(CCC(C)C)C(CCO)C1 (centres undefined) | 109.8 | 0.4 | / | i | 1.05 | / | /
O=C(O)c1cccc(COCC(F)(F)C(F)F)c1 | 100.1 | 9.8 | -1.3 | i | 1.12 | 65.0 | 85.7
COCC1CCCCN1Cc1cn[nH]c1-c1ccc2cc(OC)ccc2c1 (centres undefined) | 100.4 | -3.9 | / | i | 1.02 | -28.6 | 83.0
O=C(NC(=S)N(Cc1ccccc1)c1ccccn1)C1CCCCC1 | 103.0 | 8.7 | -1.4 | i | 0.98 | / | /
Cc1cccc[n+]1C1C(c2ccc([N+](=O)[O-])cc2)C(C#N)=C(C(=C=[N-])C#N)NC1(O)C1CC1 (centres undefined) | 107.8 | -1.2 | / | / | / | -15.4 | 81.6
CC1(C)Cc2nc3sc(C(=O)NCCCO)c(N)c3cc2CO1 | 104.2 | / | / | i | 0.75 | / | /
Cc1ccc(/C=C2\S/C(=N/S(=O)(=O)c3cccs3)NC2=O)cc1 | 111.3 | / | / | i | 1.03 | / | /
CC(C)CCNC(=O)CN(C(=O)Cn1nnc(-c2ccccc2F)n1)c1cccc2c1CCCC2 | 0.7* | 4.2 | -1.5 | i | 0.79 | 4.2 | 115.0
NC(=O)c1sc2nc(-c3cccnc3)ccc2c1N | 103.7 | / | / | i | 0.98 | / | /
Cc1ccc(NC(=O)CN2C(=O)CSC2=O)cc1 | 103.2 | 1.3 | -1.1 | i | 0.83 | -25.0 | 107.4
COCCCNC(=S)N1CCN(c2ccccc2)CC1 | 109.2 | 3.7 | / | i | 1 | -94.9 | 89.7
O=C1c2ccccc2S(=O)(=O)N1CC1CC(c2ccccc2)=NO1 (centres undefined) | 101.2 | -41.5 | -0.1 | i | 1.07 | 26.7 | 74.6
COc1ccc2oc(=O)c(C(=O)N3CCN(c4ccccc4)CC3)cc2c1 | 100.9 | -3.8 | 0.2 | i | 1.12 | 21.4 | 97.5
CCCCCCC(=O)Nc1nc(C)c(-c2csc(Nc3cc(OC)ccc3OC)n2)s1 | 102.4 | 13.6 | 1.9 | i | 1.06 | -17.8 | 187.7
